Sa ugtP lethal: growth inhibition of ugtP-null S. aureus, primary screen, RN4220 ugtP deletion, OD600; 16 h; some inactives read as strong as hits; growth inhibition, % (concentration not given with the values); 330,000 tested, 0.54% active;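 active means z-score under -3 and OD600 up to 0.15 on both plates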;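 further: plate controls were untreated wells for no effect and antibiotic for full effect; wells of about 80 µL received 100 nL stock; the first replicate is given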
PrP UTR inh: inhibition of PrP 5' UTR reporter expression; cell-based PrP 5' UTR mRNA reporter, plate reader; inhibition, % (concentration not given with the values); 340,000 tested, 0.35% active; AID 488862, 2010;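 active means every replicate at 50% or more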;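 further: 0 = median of the neutral control wells; tested in H4 reporter cells; numbers are from one replicate; inactives centre near -14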
BJeLR lethal: MLPCN primary cell-based screen for lethality selective to Ras in HRASV12 cells | BJeLR (HRASV12) viability, CellTiter-Glo ATP luminescence, 48 h; reference of the scale not given here | inhibition, % (no concentration beside the values) | AID 1554, 2009 | 300,000 tested, 0.17% active;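 active means replicate mean above 50%; inconclusive means above 50% but judged a plate artefact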;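 further: 50 nL library stock added to about 25 µL; numbers are from one replicate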
RN4220 kill: growth inhibition of S. aureus RN4220, primary screen, OD600. 330,000 tested, 0.33% active. inhibition, % (test concentration not listed). 16 h. AID 1259311, 2017;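 active means z-score of -3 or lower and OD600 up to 0.18 on both plates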;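 further: plate controls were untreated cells for no effect and reference antibiotic for full effect; stock transfer was 100 nL into about 80 µL; one replicate is shown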
Mtb hypoxia inh: PubChem AID 1159583. M. tuberculosis hypoxia-regulated fluorescent reporter, fluorescence. fluorescence inhibition, % (test concentration not listed). 300,000 tested, 0.1% active;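 active means 35 to 45% if threefold the growth effect, above 45% if 1.5-fold the growth effect; inactive means the rest, general growth blockers included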;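 further: wells of about 50 µL received 100 nL stock; 0% = vehicle wells and 100% = reference inhibitor wells; whole bacteria with a GFP reporter of the hypoxia response; strong numbers were not always called active; many hits fall short of the cut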
Autofluor counter: flagged as autofluorescent in microsphere protease counterscreen; 360,000 tested, 3.1% active; fluorescence intensity (test concentration not listed); AID 624483; compound autofluorescence counterscreen, microsphere flow cytometry; active compounds read high;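 active means at least 3 SD above the mean of all compounds, about 16000 in these data; inconclusive means too few beads counted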;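 further: 100 nL of 1 mM stock went into each well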
Mtb hypoxia inh growth: further read-out of Mtb hypoxia inh, marked with its call; growth inhibition, %; measured here: M. tuberculosis growth (absorbance);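 0% = vehicle and 100% = reference antibiotic; read after six days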
* hit, by the source's call; ? = inconclusive; . = not tested or not shown.

SMILES	Sa ugtP lethal	PrP UTR inh	BJeLR lethal	RN4220 kill	Mtb hypoxia inh	Mtb hypoxia inh growth	Autofluor counter
COCCNC(=O)COC(=O)CSCc1nc2ccccc2s1	7	-14	1	5.7	2	0	15809
COc1cccc2c1C1CN(CCCCn3c(=O)[nH]c4c(sc5ncc(-c6ccccc6)nc54)c3=O)CC1CO2 (stereo unspecified)	-16	.	.	-5.2	10	20	.
CCCCN1C(=O)NC(NC(C)=O)(C(F)(F)F)C1=O (stereo unspecified)	-2	-22	-3	-1.3	.	.	4256
Nc1ccc2nc(CCCCc3nc4ccccc4[nH]3)[nH]c2c1	-4	-8	-1	-3.3	-3	7	4149
O=C1CCC2S/C(=C/Nc3ccc(C(F)(F)F)cc3)C(=O)N12 (stereo unspecified)	-3	49	2	3.6	1	9	4089
CN(C(=O)c1ccc(Br)o1)C1CCCCC1	-4	-15	-7	4.9	20	2	6573
COc1ccc(C(=O)N/C(=C/c2cccnc2)C(=O)NCc2ccco2)cc1OC	5	-18	5	0.6	-2	-3	5664
CCOc1cc(S(=O)(=O)NCc2ccncc2)ccc1Cl	0	-8	-3	7.2	23	32	4901
c1ccc(OCc2noc(CN3CCC(C4CCCCC4)C3)n2)cc1 (stereo unspecified)	12	-8	-3	5.0	14	5	2844
O=C(COc1ccc2ccccc2c1)NNC(=O)c1ccccc1	1	-3	4	-2.1	14	12	5462
CCOC(=O)N1CCC(n2c(SCC(=O)NCc3ccco3)nc3ccsc3c2=O)CC1	0	5	-7	1.2	1	5	23599*
Cc1ccc(-c2nc(-c3ccncc3)no2)cc1C	-5	-14	-10	1.7	-6	1	?
CCC(C)[C@H](NC(=O)N1CC(=O)Nc2ccccc21)C(=O)N[C@@H](Cc1c[nH]c2ccccc12)C(=O)O (stereo partly specified)	-10	-17	-5	6.5	.	.	6008
Cc1occc(=O)c1OC(=O)Nc1ccc(Cl)c(Cl)c1	99*	-73	.	99*	-2	9	2444
COc1cccc(-c2ccc(C#N)c(SCC(=O)NCCc3ccccc3)n2)c1	5	-30	0	1.2	4	2	10923
c1ccc(C[C@H]2CNCCN2CC2(c3ccccc3)CC2)cc1	.	-3	3	.	.	.	3522
CC[C@]12c3[nH]c4cc(CCC(=O)N(C)C)ccc4c3CCN1C(=O)[C@@H](CC(=O)NCC13CC4CC(CC(C4)C1)C3)C[C@@H]2C(=O)N1CCN(C(=O)C2CC2)CC1	8	-1	.	1.6	-1	3	4348
CC(C)CNS(=O)(=O)c1ccc(CCC(=O)N2CCN(c3ccc(F)cc3)CC2)cc1	7	-18	12	10	8	5	4296
COc1ccc(C2C3=C(CC(C)(C)CC3=O)Nc3c2c(=O)[nH]c(=O)n3Cc2ccccc2)cc1 (stereo unspecified)	-3	-2	0	4.5	2	13	2815
O=C(NCc1ccccc1)C1CCN(S(=O)(=O)N2CCOCC2)CC1	8	-5	9	0.9	3	5	11350
N#C/C(=C\c1ccc2c(c1)OCO2)C(=O)NCc1ccco1	0	-23	5	0.9	-7	-5	4790
Cc1occc1C(=O)NNC(=S)Nc1ccccc1C(F)(F)F	5	-18	4	3.3	11	5	8370
COC(=O)C(/C=N/OCc1ccc([N+](=O)[O-])cc1)NC(=O)c1ccccc1 (stereo unspecified)	.	-13	2	.	.	.	2865
CNS(=O)(=O)c1cc(OC)ccc1OC	-8	-11	0	-2.6	0	6	9252
CN(CC(=O)Nc1sccc1C#N)S(=O)(=O)c1ccc(F)cc1	4	-24	.	4.1	8	-3	.
CCOc1cc(/C=C2\N=C(SC)SC2=O)cc([N+](=O)[O-])c1OC(C)=O	-3	7	-8	-0.1	.	.	4505
Br/C(C=NNc1nc(N2CCOCC2)nc(N2CCOCC2)n1)=C\c1ccccc1	-11	.	.	-1.6	-12	4	.
O=C(N/N=C\c1ccc(F)cc1)c1ccc(Cn2cc(Br)c([N+](=O)[O-])n2)o1	.	1	2	.	.	.	10555
Cc1ccc(C2=NN(CCC(=O)NCCCN3CCOCC3)C(=O)CC2)cc1	3	-16	2	2.6	11	1	4339
CN(C)CCCN(C(=O)C1COc2ccccc2O1)c1nc2cc3c(cc2s1)OCO3 (stereo unspecified)	8	-24	-2	0.6	4	3	5395
CCc1nnc(NC(=O)CN2C(=O)NC3(CCCC3)C2=O)s1	5	-6	.	0.1	5	5	5832
CCOc1ccccc1N1C(=O)CC(Sc2n[nH]c(-c3ccccc3)n2)C1=O (stereo unspecified)	13	-20	2	15	14	-2	2184
Cc1ccc(C=NNC(=O)C(c2ccncc2)N2CCOCC2)cc1 (stereo unspecified)	6	.	.	2.2	5	7	.
CC1(C)CC(=O)C(Sc2nnc(-c3ccc(O)cc3)n2CC2CCCO2)C(=O)C1 (stereo unspecified)	3	-14	8	2.4	-4	-2	8191
COC(=O)c1ccccc1-c1ccc(C=O)o1	11	-17	4	6.6	3	4	3767
Cc1cc(C)n(-c2cc(N3CCOCC3)ncn2)n1	2	1	-7	3.8	11	4	6135
COC(=O)c1nc(-c2ccccc2)nc(-c2ccccc2)c1C(=O)OC	4	.	-5	9.2	4	2	4216
O=C(NC(=S)Nc1nc(-c2ccccc2)cs1)c1ccco1	-1	-4	-15	-1.1	-3	1	2326
CC(=O)Nc1ccc(NC(=O)C(=O)c2cn(CC(=O)N3CCCCC3)c3ccccc23)cc1	2	-19	.	4.1	-14	-9	4385
O=C1NCCCN1Cc1ccc(F)cc1Cl	1	-25	5	-1.2	3	4	15250

16 of the compounds above, with two lines to a compound:
Every second line gives: Sa ugtP lethal, PrP UTR inh, BJeLR lethal, RN4220 kill, Mtb hypoxia inh, Mtb hypoxia inh growth, Autofluor counter
> CC[C@]12c3[nH]c4cc(CCC(=O)N(C)C)ccc4c3CCN1C(=O)[C@@H](CC(=O)NCC13CC4CC(CC(C4)C1)C3)C[C@@H]2C(=O)N1CCN(C(=O)C2CC2)CC1
  8, -1, ., 1.6, -1, 3, 4348
> CC(C)CNS(=O)(=O)c1ccc(CCC(=O)N2CCN(c3ccc(F)cc3)CC2)cc1
  7, -18, 12, 10, 8, 5, 4296
> COc1ccc(C2C3=C(CC(C)(C)CC3=O)Nc3c2c(=O)[nH]c(=O)n3Cc2ccccc2)cc1 (stereo unspecified)
  -3, -2, 0, 4.5, 2, 13, 2815
> O=C(NCc1ccccc1)C1CCN(S(=O)(=O)N2CCOCC2)CC1
  8, -5, 9, 0.9, 3, 5, 11350
> N#C/C(=C\c1ccc2c(c1)OCO2)C(=O)NCc1ccco1
  0, -23, 5, 0.9, -7, -5, 4790
> Cc1occc1C(=O)NNC(=S)Nc1ccccc1C(F)(F)F
  5, -18, 4, 3.3, 11, 5, 8370
> COC(=O)C(/C=N/OCc1ccc([N+](=O)[O-])cc1)NC(=O)c1ccccc1 (stereo unspecified)
  ., -13, 2, ., ., ., 2865
> CNS(=O)(=O)c1cc(OC)ccc1OC
  -8, -11, 0, -2.6, 0, 6, 9252
> CN(CC(=O)Nc1sccc1C#N)S(=O)(=O)c1ccc(F)cc1
  4, -24, ., 4.1, 8, -3, .
> CCOc1cc(/C=C2\N=C(SC)SC2=O)cc([N+](=O)[O-])c1OC(C)=O
  -3, 7, -8, -0.1, ., ., 4505
> Br/C(C=NNc1nc(N2CCOCC2)nc(N2CCOCC2)n1)=C\c1ccccc1
  -11, ., ., -1.6, -12, 4, .
> O=C(N/N=C\c1ccc(F)cc1)c1ccc(Cn2cc(Br)c([N+](=O)[O-])n2)o1
  ., 1, 2, ., ., ., 10555
> Cc1ccc(C2=NN(CCC(=O)NCCCN3CCOCC3)C(=O)CC2)cc1
  3, -16, 2, 2.6, 11, 1, 4339
> CN(C)CCCN(C(=O)C1COc2ccccc2O1)c1nc2cc3c(cc2s1)OCO3 (stereo unspecified)
  8, -24, -2, 0.6, 4, 3, 5395
> CCc1nnc(NC(=O)CN2C(=O)NC3(CCCC3)C2=O)s1
  5, -6, ., 0.1, 5, 5, 5832
> CCOc1ccccc1N1C(=O)CC(Sc2n[nH]c(-c3ccccc3)n2)C1=O (stereo unspecified)
  13, -20, 2, 15, 14, -2, 2184

(cont.)
SMILES	Sa ugtP lethal	PrP UTR inh	BJeLR lethal	RN4220 kill	Mtb hypoxia inh	Mtb hypoxia inh growth	Autofluor counter
CC1(C)OC2CC3C4CCC5=CC(=O)C=C[C@]5(C)[C@@]4(F)C(O)C[C@]3(C)[C@]2(C(=O)CO)O1 (stereo partly specified)	-4	.	.	4.2	-1	4	.
CC1CCCCN1CCCNC(=O)c1ccc(N2CCCC2=O)cc1 (stereo unspecified)	6	-4	-2	11	-1	9	5958
CN(Cc1ccccc1F)C(=O)c1ccc(NS(=O)(=O)c2ccc3[nH]c(=O)[nH]c3c2)cc1	.	-3	4	.	.	.	?
CCN(c1ccc(OC)cc1)S(=O)(=O)c1cc(-c2cc(C)no2)ccc1OC	-4	-14	-1	6.8	-1	8	5365
COC(=O)[C@@H](NC(=O)N1CCN(c2cccc(C(F)(F)F)c2)CC1)C(C)C	.	1	-18	.	.	.	3441
CCOc1ncccc1C(=O)OCC(=O)c1ccccc1Br	10	-67	9	5.1	5	18	5545
Cc1ccc(C)c(NC(=O)CSc2nc3nc(-c4cccs4)cc(C(F)(F)F)c3c(=O)[nH]2)c1	66	-22	4	27	10	-4	4477
O=C(/C=C(\O)c1ccccc1)C(=O)NNC(=O)c1ccccc1	.	-26	-1	.	.	.	3699
Cc1ccc(OCCOC(=O)C2CCN(S(=O)(=O)c3ccc(C)c(C)c3)CC2)cc1	8	-10	-8	-4.6	-3	2	?
CCN(C(=O)COC(=O)c1cccnc1SC)C1CCS(=O)(=O)C1 (stereo unspecified)	-6	-11	4	-17	17	-19	3522
CCCCc1ncc(CN2CCCC(C(=O)c3ccc(SC)cc3)C2)[nH]1 (stereo unspecified)	11	-20	10	2.5	-3	1	2684
Cc1ccc(C)c(NC(=O)C(OC(=O)c2ccc(NC(=O)CC#N)cc2)c2ccccc2)c1 (stereo unspecified)	-5	-17	0	1.4	-6	2	5917
CSCCC(NC(=O)c1ccco1)C(=O)N1CCN(c2ccccc2O)CC1 (stereo unspecified)	5	-24	.	2.3	7	3	6197
Cc1ccccc1C(=O)N1CCN(S(=O)(=O)c2cccs2)CC1	6	-14	5	3.9	5	1	6399
O=C(c1ccc(S(=O)(=O)NCc2ccco2)cc1)N1CCN(c2ccc(F)cc2)CC1	3	-14	.	4.0	16	8	.
Cc1ccc(CSc2nnc(C(F)(F)F)n2Cc2ccc(F)cc2)cc1	-3	-16	1	2.7	6	3	9775
O=C(NN=Cc1cc(Cl)cc([N+](=O)[O-])c1O)c1cccc(S(=O)(=O)N2CCOCC2)c1	1	.	.	5.6	2	-8	.
CCCc1c(C)nc(N2CCN(c3cccc(OC)c3)CC2)[nH]c1=O	1	-18	-5	4.4	-3	2	4081
CC(C)Sc1nnc(NC(=O)C2CC2)s1	1	-45	3	3.5	17	9	5316
CSc1ncccc1C(=O)Nc1cc(Cl)ccc1N1CCOCC1	0	-3	.	0.7	0	-6	.
COc1ccc(CN(C)C(=O)Cc2ccsc2)c(OC)c1OC	6	7	0	1.4	5	-8	5801
Nc1ncn(CC(=O)c2ccccc2)n1	1	-11	8	2.2	4	10	1914
N#Cc1cc2ccc(N3CCOCC3)cc2cc1C#N	-2	-31	-3	8.0	20	6	9225
COc1ccc(CCN(C)C2CCCN(S(=O)(=O)C(C)C)C2)cc1OC (stereo unspecified)	4	-19	9	-2.8	13	9	3858
CCCCCOc1ccc(C(=O)CCC(=O)NNC(=O)c2ccncc2)cc1	1	-6	.	5.8	.	.	.
C=CCS(=O)(=O)c1nc2ccccc2s1	-5	-12	2	-0.6	.	.	2165
Cc1cc(=O)[nH]c(/N=C(\N)Nc2ccc(Oc3ccccc3)cc2)n1	.	-10	14	.	.	.	4655
Cc1ccc(NC(=O)CN(C)C(=O)c2cn(Cc3ccccc3)nc2-c2cccnc2)cc1	8	-27	.	3.0	6	-2	6267
NC(=O)C1CC(=O)N(c2ccc(OCc3ccc(F)cc3)cc2)C1 (stereo unspecified)	4	-23	16	4.3	12	12	3193
O=C(COC(=O)Cn1cnc2ccccc2c1=O)NNC(=O)c1ccc(Br)cc1	0	-29	.	3.9	6	3	4252
CCOc1cc(C2NC(=O)NC(C)=C2C(=O)OCc2ccccc2)ccc1O (stereo unspecified)	-1	-15	-6	6.4	7	4	8928
CCCN(CC(=O)Nc1ccccc1OC)C(C)C(=O)NC(C)CCc1ccccc1 (stereo unspecified)	10	-22	-5	2.7	7	4	3760
CC1(C)Cc2c(sc3nc[nH]c(=O)c23)CO1	-1	-13	8	5.0	1	6	2432
Cc1ccc2nc(C)cc(SCC(=O)N/N=C/c3ccco3)c2c1	.	0	15	.	.	.	5294
